HNF4A DNA FP: change in binding of human HNF4 alpha to DNA; P41235; 0.3% of 360,000 active; activity change, % at 10 µM; HNF4a-FITC DNA binding, fluorescence polarization, 1 h; in the data active = activity change above about 30%, passing the limit was not always enough;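 also: controls were the assay level and a saturating level of protein; the project sought stronger binding though the title names inhibitors; some compounds called inactive have numbers as strong as hits; positive values seem to mean higher polarization but the record does not say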
rRNA inh HTS: selective bacterial rRNA inhibition in E. coli. E. coli WT GFP vs humanized-ribosome RFP mutants, fluorescence, 24 h; active compounds read low; DMSO median 0, no signal -100. GFP signal change (wild-type ribosome), % (concentration not given with the values). 1.6% of 350,000 active. AID 720706;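 active = significant combined selectivity score with lowered wild-type GFP, culture density cut under 30%, mutant RFP and density less affected; inactive = any of these conditions unmet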; also: one replicate is shown; some compounds called inactive have numbers as strong as hits
ALR H2O2 inh: blocks human ALR sulfhydryl oxidase activity | P55789 | purified ALR, DTT oxidation, H2O2 HRP-luminol luminescence | inhibition, % (concentration not given with the values) | 3.8% of 290,000 active;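 active = mean and each replicate at 75% or more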;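 also: stock transfer was 7.5 nL into about 7.5 µL; 0% = neutral wells and 100% = wells with inactivated enzyme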
Target sequence (P55789 whole entry, looked up): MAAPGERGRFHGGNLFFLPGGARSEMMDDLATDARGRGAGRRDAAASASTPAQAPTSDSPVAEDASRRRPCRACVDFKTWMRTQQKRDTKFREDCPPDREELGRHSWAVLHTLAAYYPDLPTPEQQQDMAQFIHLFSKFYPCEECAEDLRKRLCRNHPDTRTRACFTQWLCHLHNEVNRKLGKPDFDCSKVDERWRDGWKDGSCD
UCH37 DUB inh: inhibitors of human deubiquitinating enzyme UCH37 | Q9Y5K5 | purified proteasome/UCH37, Ub-AMC cleavage fluorescence | inhibition, % (concentration not given with the values) | 0.33% of 330,000 active;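 active = mean of two replicates above 20%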;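 also: 0% = compound-free wells with enzyme and 100% = wells lacking proteasome; stock transfer was 100 nL into about 20 µL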
Target sequence (Q9Y5K5 whole entry, looked up): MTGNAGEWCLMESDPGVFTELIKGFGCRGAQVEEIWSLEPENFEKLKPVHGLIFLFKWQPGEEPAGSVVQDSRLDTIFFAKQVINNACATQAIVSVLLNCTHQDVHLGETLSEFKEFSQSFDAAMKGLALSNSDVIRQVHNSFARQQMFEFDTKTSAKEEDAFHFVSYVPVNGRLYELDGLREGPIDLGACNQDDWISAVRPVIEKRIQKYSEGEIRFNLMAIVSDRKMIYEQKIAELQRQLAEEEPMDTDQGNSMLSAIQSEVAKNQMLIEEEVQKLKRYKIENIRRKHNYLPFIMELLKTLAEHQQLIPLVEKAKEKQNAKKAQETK
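Material: Human UCH37 enzyme supplied as purified proteasome complex | Schedule: 30 min compound-proteasome preincubation then 25 min substrate reaction, room temperature | Detection: AMC fluorescence from Ub-AMC cleavage, excitation 355 nm, emission 460 nm | Benchmarks: Wells without proteasome as full block, compound-free enzyme plus substrate as uninhibited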
FGF22 binding: FGF22 (human) thermal shift binding; calls only at 9.99 µM; recombinant FGF22 thermal shift, SYPRO orange fluorescence; percent of sucrose octasulfate shift, DMSO zero; 1.5% of 340,000 active; Q9HCT0;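 active = melting point raised past a set limit in the mean and every replicate; three in four hits are not shown here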
Ecoli growth: inhibitors of Escherichia coli growth; OD600, 23 h; active compounds read low; OD600 absorbance (no concentration beside the values); 0.21% of 330,000 active; AID 1053175;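 active = OD600 absorbance below the run mean of sample wells minus 3.6 SD, in any replicate, cut at about 0.56 in these data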;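 also: stock transfer was 300 nL into about 60 µL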
B2AR ag: activates human beta-2 adrenergic receptor causing internalization. P07550. 0.43% of 340,000 active. Am2.2-beta2AR cells, FAP receptor internalization, flow cytometry; reference of the scale not given here. response, % (test concentration not listed);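 active = response above a set limit, near 3 SD of response in nonfluorescent compounds, cut at about 42% in these data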;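 also: stock transfer was 100 nL into about 11 µL; a reference agonist was the positive control; negative values mostly stem from fluorescent compounds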
Target sequence (P07550 whole entry, looked up): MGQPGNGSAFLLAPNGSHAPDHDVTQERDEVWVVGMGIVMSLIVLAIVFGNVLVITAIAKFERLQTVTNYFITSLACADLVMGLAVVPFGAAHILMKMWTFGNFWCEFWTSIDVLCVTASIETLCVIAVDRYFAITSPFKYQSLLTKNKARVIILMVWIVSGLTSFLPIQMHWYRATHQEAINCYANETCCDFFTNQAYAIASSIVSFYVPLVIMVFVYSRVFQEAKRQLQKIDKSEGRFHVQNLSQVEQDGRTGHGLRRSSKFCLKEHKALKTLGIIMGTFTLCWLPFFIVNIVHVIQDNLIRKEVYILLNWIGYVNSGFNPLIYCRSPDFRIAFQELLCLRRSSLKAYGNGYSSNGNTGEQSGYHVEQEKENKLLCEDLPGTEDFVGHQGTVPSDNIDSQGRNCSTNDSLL
rRNA inh HTS OD600: recorded beside rRNA inh HTS, whose call it bears; OD600 change, %; measured here: OD600 growth;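 optical density of the mix in the first replicate; 0 = DMSO median and -100 = no signal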
rRNA inh HTS RFP: recorded beside rRNA inh HTS, whose call it bears; RFP signal change, %; measured here: RFP humanized mutant strains;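 first replicate; 0 = DMSO median and -100 = no signal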
Starred values were filed as active, the others as inactive; i = inactive; · = no result given.

SMILES	HNF4A DNA FP	rRNA inh HTS	rRNA inh HTS OD600	rRNA inh HTS RFP	ALR H2O2 inh	UCH37 DUB inh	FGF22 binding	Ecoli growth	B2AR ag
CO[C@H]1[C@@H](OC)CC(OC2OC(CO)C(O)C(O)C2O)/C(=C\C#N)[C@@H]1O (some centres undefined)	-1.6	15	28	5.9	-6	0.5	i	·	2
c1cncc(C2CCCCN2)c1 (centres undefined)	1.9	·	·	·	·	0.8	i	0.8	5
O=C(N/N=C/c1c(O)n(CCc2ccc(F)cc2)c(=O)[nH]c1=O)c1ccncc1	9.9	-12	-10	3.4	17	·	i	·	-4
CS(=O)(=O)c1ccc(C2=C(CNC(=O)c3nccs3)[C@H]3CC[C@@H](C2)N3CCOc2ccccc2)cc1	2.5	7	7	0.9	·	·	i	·	·
COc1ccc(-n2nc(C(=O)NCC(=O)N3CCC4(CC3)OCCO4)c3ccccc3c2=O)c(OC)c1	4.2	5	13	-2.1	-18	6.9	i	0.67	-5
O=C1NC(=O)C(CCc2ccncc2)(Cc2cccc(Cl)c2Cl)C(=O)N1c1ccc(Br)cc1 (centres undefined)	-0.1	·	·	·	7	-0.2	·	0.69	-5
c1ccc2nc(OCCN3CC3)ccc2c1	·	10	12	1.8	10	·	i	·	·
COc1ccccc1/C=C1/C(=N/O)C2CCN1CC2	-1.1	·	·	·	-5	·	·	·	6
CCOC(=O)[C@]12Cc3ccccc3[C@H]1N(C(C)C)C(=O)c1cc(OC)ccc12	-3.8	-43	-77	-19	·	·	i	·	·
COC(=O)C1=C(c2ccccc2OCc2ccccc2)C[C@@H]2CC[C@H]1N2C(=O)NCc1ccc(C(C)(C)C)cc1	-0.4	13	19	-6.3	-5	3.1	i	·	0
C[C@]12CCC(=O)CC1CCC1C2CC[C@]2(C)C(OC(=O)CCC(=O)O)CCC12 (some centres undefined)	0.3	-42	-71	-16	0	4.4	i	0.66	-12
CC(=O)c1cccc(OCC(=O)N2CCN(CC(=O)Nc3cccc(F)c3)CC2)c1	-1.8	10	5	2.7	-3	3.2	i	0.68	-1
O=C1NC2NC(=O)N([N+](=O)[O-])C2N1 (centres undefined)	1.7	6	8	0.3	-4	-1.2	i	0.64	3
CNC(C(=O)c1ccccc1)C(OC(C)=O)c1cccc([N+](=O)[O-])c1 (centres undefined)	-0.8	-1	-7	2.2	10	7.0	i	0.71	-3
CCN(CC)C(=O)c1ccc(NC(=O)c2cccc(S(=O)(=O)N3CCN(Cc4ccccc4)CC3)c2)cc1	-0.9	-3	-5	5.4	3	-0.8	i	0.65	-4

Random excerpt: 2 entries already listed.
SMILES	HNF4A DNA FP	rRNA inh HTS	rRNA inh HTS OD600	rRNA inh HTS RFP	ALR H2O2 inh	UCH37 DUB inh	FGF22 binding	Ecoli growth	B2AR ag
CNC(C(=O)c1ccccc1)C(OC(C)=O)c1cccc([N+](=O)[O-])c1 (centres undefined)	-0.8	-1	-7	2.2	10	7.0	i	0.71	-3
COC(=O)C1=C(c2ccccc2OCc2ccccc2)C[C@@H]2CC[C@H]1N2C(=O)NCc1ccc(C(C)(C)C)cc1	-0.4	13	19	-6.3	-5	3.1	i	·	0

The results go on:
SMILES	HNF4A DNA FP	rRNA inh HTS	rRNA inh HTS OD600	rRNA inh HTS RFP	ALR H2O2 inh	UCH37 DUB inh	FGF22 binding	Ecoli growth	B2AR ag
Cc1[nH]c2ccccc2c1CCNCc1cccnc1	-0.3	7	13	0.1	·	5.2	i	0.68	1
COC(=O)C1=C(c2ccc(S(C)(=O)=O)cc2)C[C@@H]2CC[C@H]1N2C(=O)NCc1ccccc1	5.8	14	3	-0.7	3	-0.9	i	·	3
COc1cc(CC2C(=O)N(C)C(=O)N(C)C2=O)ccc1OCc1ccccc1	-0.2	5	4	-0.5	34	24*	i	0.65	3
Cc1nn(Cc2ccccc2Cl)c(C)c1C(=O)NC1CCCc2ccccc21 (centres undefined)	10	·	·	·	-1	1.3	·	0.71	6
COc1ccc(-c2ccc3c(c2)CN(C(=O)C(C)(C)C)Cc2cnnn2-3)cc1	4.0	-9	-19	-1.3	·	·	i	·	·
N#CC(C#N)=Cc1ccc(N2CCOCC2)cc1	-1.3	16	10	2.0	-2	3.8	i	0.69	14
CC(C)N1OC2CC1c1nc3ccccc3n1C2 (centres undefined)	3.0	8	17	20	-10	0.0	i	0.69	-1
CCC1=Nc2cc(C(=O)N3CCC4(CC3)OCCO4)ccc2Sc2ccc(Br)cc21	-1.7	5	-11	6.7	-6	·	i	·	-8
CN1CCc2c([nH]c3ccccc23)C1	-0.6	·	·	·	-2	1.7	i	0.69	11
CC(=O)O[C@H]1CC[C@@]2(C)C(=CC(=O)C3C2CC[C@@]2(C)C3C[C@H](OC(C)=O)[C@@H]2OC(C)=O)C1 (some centres undefined)	-1.4	5	3	6.2	-4	0.5	i	0.73	0
CCn1ccnc1CN1CCCC(C(=O)c2cc(C)c(OC)c(C)c2)C1 (centres undefined)	1.8	2	2	1.1	-11	4.5	i	0.67	10
COC(=O)C1=C(c2cccc(OCc3ccccc3)c2)C[C@@H]2CC[C@H]1N2C(=O)NCc1ccc(Cl)cc1	1.9	19	14	-0.2	3	2.1	i	·	10
CC1CCN(CCc2nc3ccccc3[nH]2)CC1	-1.3	10	10	-0.3	-4	1.4	i	0.68	-3
O=C(NC1CN2CCC1CC2)c1cc(Cl)c([N+](=O)[O-])c2nc[nH]c12 (centres undefined)	1.0	·	·	·	-30	6.3	·	0.7	4
CCc1cc2c(s1)NC(=O)CN=C2c1cccs1	2.0	·	·	·	7	1.1	·	0.67	-3
COCCOC(=O)c1c(C)oc2ccc(OC(=O)N(C)C)cc12	2.3	·	·	·	-3	0.1	·	0.7	-8
Nc1ccccc1C(=O)OCC(=O)c1ccc2c(c1)OCCO2	-2.8	0	1	-3.3	3	-7.2	i	0.62	4
CNC(=S)N1CCN(CCN=Cc2c(O)n(-c3ccc(C)cc3)c(=S)[nH]c2=O)CC1	-0.1	18	22	-4.1	·	3.5	i	0.64	-1
Cn1c(O)c(C=Nc2ccc(Br)cc2)c(=O)n(C)c1=O	-3.8	1	6	-5.0	·	-12	i	0.66	5
CC(C)(C)N(NC(=O)c1ccccc1)C(=O)c1ccccc1	-3.1	·	·	·	·	0.6	·	0.62	-11
CCOC(=O)[C@]12Cc3cc(OC)ccc3[C@H]1N(Cc1ccccc1)C(=O)c1ccccc12	-1.5	-15	-10	-14	·	3.0	i	·	10
CC(C)=CCSc1nnc([C@@H](N)Cc2c[nH]c3ccccc23)o1	-1.2	·	·	·	3	0.1	·	0.68	-6
N#CCC(=O)NN1Cc2ccccc2C1=N	-1.0	14	18	4.7	-1	0.0	·	0.66	0
Cc1ccc(-n2c(O)c(/C=N/N3CCCCCC3)c(=O)[nH]c2=O)cc1C	-5.3	-2	-1	-1.4	·	6.4	i	0.72	-5
Cc1ccc2nc(N3CCC(C(=O)N4CCC5(CC4)OCCO5)CC3)sc2c1	1.0	·	·	·	-3	0.2	·	0.64	-3
CN1C(=O)c2ccccc2NC(=O)C1Cc1ccccc1 (centres undefined)	3.7	·	·	·	98*	0.9	i	0.78	-1
COc1cc(C2NCc3ccccc3-n3cccc32)ccc1O (centres undefined)	7.6	·	·	·	24	3.0	·	0.73	2
OC(CCNCCc1c[nH]c2ccccc12)C(F)(F)F (centres undefined)	-1.5	1	-11	-0.5	5	4.7	i	0.71	5
COc1ccccc1N1CCN(Cc2ccccc2)CC1	-0.8	-2	3	-1.0	25	5.9	i	0.69	-2
COc1ccc2nc(/N=C/c3c(O)n(-c4cccc(Cl)c4)c(=O)[nH]c3=O)sc2c1	1.0	·	·	·	12	-9.8	·	0.71	4
COc1ccc(-n2nnnc2C(c2ccccc2OC(F)(F)F)N2CCC3(CC2)C(=O)NCN3c2ccccc2)cc1 (centres undefined)	-2.5	19	9	0.4	·	·	i	·	·
CC12CC(=O)C3C(CCC4CC=CCC43C)C1CCC2=O (centres undefined)	0.3	-15	-29	-5.8	·	·	i	·	-11
c1cncc(C2Nc3cccc4cccc(c34)N2)c1	-6.0	3	15	-6.8	-8	8.2	i	0.67	2
COC(=O)CCCNC(=O)CN1CC(c2ccccc2)CC1=O (centres undefined)	3.1	·	·	·	-4	5.5	·	0.75	8
COc1ccc(-c2cc(-c3ccccc3)[n+](C)c(-c3ccccc3)c2)cc1	0.8	-54	-79	-16	-4	-20	i	0.71	-8
COc1ccc(/C=N\N=C(N)N)cc1	-1.7	12	14	2.1	11	·	i	·	-10
NC(=O)Cn1cc(C=C2C(=O)NC(=O)NC2=O)c2ccccc21	-2.0	26	14	4.2	-6	3.5	i	0.69	4
COc1cc2c(cc1OC)C1C(=O)c3ccc4c(c3OC1CO2)CC(C(C)C)O4 (centres undefined)	-1.7	-3	-12	-4.2	·	1.9	i	0.67	-6
CC1CCOC(=O)C=CC=CC(=O)OC2CC3OC4C5OC5(C)C(O)CC4(COC(=O)C1O)C2(C)C31CO1 (centres undefined)	-2.1	·	·	·	·	·	i	·	-15
CC1CCN(CC(=O)c2ccc3c(c2)OCCO3)CC1	-0.5	7	4	2.0	29	1.1	i	0.7	-5
COC(=O)C1=C(c2ccc(OCc3ccccc3)c(F)c2)C[C@@H]2CC[C@H]1N2C	5.1	-10	-3	2.5	·	·	i	·	·
COc1ccc(OCc2cc(C(=O)N(C)Cc3cc(C)no3)no2)c(Cl)c1	-0.4	-2	-21	0.0	-29	-0.4	i	0.7	0
OCCCCO	0.0	4	3	0.3	-2	1.4	i	0.65	4
CC(C)n1c(=O)c(C=Nc2ccc(Br)cc2)c(O)n(Cc2ccco2)c1=O	2.2	21	17	14	-12	-14	i	0.69	5
CCOC(=O)C(C)(CC)NC(=O)CSP(=S)(OCC)OCC (centres undefined)	-3.9	·	·	·	-11	-4.1	·	0.68	3

The last 6 records of the section above are carried over, then new ones follow.
SMILES	HNF4A DNA FP	rRNA inh HTS	rRNA inh HTS OD600	rRNA inh HTS RFP	ALR H2O2 inh	UCH37 DUB inh	FGF22 binding	Ecoli growth	B2AR ag
CC1CCN(CC(=O)c2ccc3c(c2)OCCO3)CC1	-0.5	7	4	2.0	29	1.1	i	0.7	-5
COC(=O)C1=C(c2ccc(OCc3ccccc3)c(F)c2)C[C@@H]2CC[C@H]1N2C	5.1	-10	-3	2.5	·	·	i	·	·
COc1ccc(OCc2cc(C(=O)N(C)Cc3cc(C)no3)no2)c(Cl)c1	-0.4	-2	-21	0.0	-29	-0.4	i	0.7	0
OCCCCO	0.0	4	3	0.3	-2	1.4	i	0.65	4
CC(C)n1c(=O)c(C=Nc2ccc(Br)cc2)c(O)n(Cc2ccco2)c1=O	2.2	21	17	14	-12	-14	i	0.69	5
CCOC(=O)C(C)(CC)NC(=O)CSP(=S)(OCC)OCC (centres undefined)	-3.9	·	·	·	-11	-4.1	·	0.68	3
c1ccc(P(c2ccccc2)c2ccccn2)cc1	1.2	5	-1	2.7	0	4.4	·	0.65	-3
CCOc1ccc(NC(=O)c2c(O)[nH]c(=O)[nH]c2=O)cc1	1.1	14	16	-0.3	11	5.1	i	0.63	1
CCOP(=O)(OCC)C(O)c1ccc(Br)cc1 (centres undefined)	1.9	·	·	·	-8	1.8	·	0.66	2
Cn1c(Cn2cnc([N+](=O)[O-])n2)nnc1SCC(=O)Nc1cccc(Cl)c1	-3.2	·	·	·	·	0.2	·	0.65	4
O=c1[nH]c(=S)n(-c2ccccc2)c(O)c1C=NCCN1CCNCC1	4.5	7	-4	-1.0	2	8.7	i	0.7	-6
Cc1ccccc1-n1c(C)nc2sccc2c1=O	3.5	·	·	·	-2	1.4	·	0.67	-3
CC1CCC(C(C)C)C(OP(N)(=O)c2ccccc2)C1 (centres undefined)	0.8	·	·	·	-7	-1.1	·	0.74	3
Cc1ccc(N2C(=O)NC(=O)/C(=C/c3ccc(-c4ccc(C(=O)O)c(Cl)c4)o3)C2=O)cc1	-14	25	14	3.0	97*	1.9	i	0.61	-4

Screens (PubChem)

Only part of the results is shown; rates above refer to the full screens.
